# miR-21 reporter = raises the signal of a miR-21 reporter; HeLa miR-21 FLuc reporter, luciferase, 48 h; Potency, µM (top dose mostly 38.3 µM), for inactives: top-dose reporter change, positive = more light; 340,000 tested, under 10 active; AID 2288; active = well fitted rising curve with a large enough effect; inconclusive = small, poorly fitted or top-dose-only effect; inactive = no such curve, though single readings can be large or run the other way;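 also: % of control where 0% means no effect; miR-21 action dims this reporter so a rising signal means less miR-21 action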
#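 HeLa cells stably expressing CMV-driven firefly luciferase with a downstream miR-21 binding sequence, endogenously expressing miR-21, were treated with titrations (up to about 40uM final) for 48 hours at 37 degree Celsius. Luciferase luminescence was read after lysis.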
# Rango release inh = inhibition of RanGTP-driven Rango-importin beta dissociation; O95149+P62826; Biochemical FRET Rango-importin beta, RanGTP-induced dissociation; Potency, µM (highest dose often 46.1 µM), for inactives: at the top dose activity change, negative = inhibition; actives 0.071% (n = 340,000); AID 540253; active means falling FRET ratio curve, often poorly fitted, with flat reads before Ran was added; inconclusive means other falling curves, or compound fluorescence or quenching; inactive means flat or rising ratio curve;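 also: potency is read from the fitted curve at half-maximal effect; % of control where 0% means no effect; nearly all actives have a fitted effect of over 45% in size; -100% = wells without RanGTP and RCC1; the record marks most hits as doubtful in a second field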
#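 Compounds preincubate 5 min with complex of recombinant Rango and importin beta in PBS with 1 mM DTT. Ran (0.6 uM) loaded with 2 mM GTP plus 0.2 uM RCC1 starts dissociation; FRET is recorded 45 min later.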
# GLA inh pH 4.5 = inhibitors of human alpha-galactosidase A at pH 4.5 | P06280 | purified enzyme, 4-MU-alpha-Gal fluorescence, pH 4.5 | activity change, negative = inhibition, % at 105 µM | 230,000 tested, under 10 active | AID 1467; inconclusive = small, poorly fitted or top-dose-only inhibition, or a rising curve; inactive = flat fitted curve, though single readings scatter; no compound was filed as active;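 also: 0% = full activity with enzyme and -100% = basal without enzyme; dose as in the result columns while the protocol names 77 µM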
# Target sequence (P06280 whole entry, looked up): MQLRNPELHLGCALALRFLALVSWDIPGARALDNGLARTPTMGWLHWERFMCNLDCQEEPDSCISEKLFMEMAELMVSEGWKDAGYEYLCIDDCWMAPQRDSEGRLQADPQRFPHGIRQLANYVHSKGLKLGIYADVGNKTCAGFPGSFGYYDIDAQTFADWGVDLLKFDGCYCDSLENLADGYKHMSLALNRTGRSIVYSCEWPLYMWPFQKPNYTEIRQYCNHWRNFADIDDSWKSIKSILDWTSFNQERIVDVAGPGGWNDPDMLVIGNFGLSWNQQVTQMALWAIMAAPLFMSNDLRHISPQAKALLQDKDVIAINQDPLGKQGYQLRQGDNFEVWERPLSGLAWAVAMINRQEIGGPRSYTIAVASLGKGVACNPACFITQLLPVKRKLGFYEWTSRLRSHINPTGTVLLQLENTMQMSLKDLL
# Rango-impB inh = Rango-importin beta binding inhibition | Rango CFP/YFP FRET sensor + importin beta, 45 min | Potency, µM (highest dose often 92.2 µM), inactives show at the highest dose inhibition of complex formation | actives 0.031% (n = 340,000) | AID 540263; active = rising FRET ratio curve, often small or poorly fitted; inconclusive = mostly compound fluorescence or quenching in the first reads; inactive = flat curves in all reads;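 also: potency is read from the fitted curve at half-maximal effect; 0% = DMSO wells and 100% = buffer wells lacking importin beta; nearly all actives have a fitted effect of over 15% in size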
#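 FRET biosensor (snurportin 1 IBB flanked by EYFP and cerulean), 50 nM, with compound 5 min, then 0.125 microM importin beta in PBS, 1 mM DTT, 0.02% Tween-20, 0.1% BSA. CFP/YFP ratio read after 45 min at room temperature; pre-read flags interference.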
# Active calls of the source: *; ? = inconclusive; / = no result given. Not all compounds are listed, so the mix of outcomes need not match the whole.
SMILES,miR-21 reporter,Rango release inh,GLA inh pH 4.5,Rango-impB inh
O=C(N/N=C/c1ccc([N+](=O)[O-])o1)C(=O)Nc1ccc(C(=O)O)cc1,2%,-15%,-10,?
CCN1CCN(CC(=O)Nc2ccc(N(C)C)cc2)CC1,0%,6%,/,2.2%
Cc1ccnc(NCn2nnc3ccccc32)c1,0%,1%,-7,0.0%
CCCCCCCN(C(=O)CCl)c1ccccc1C,7%,-3%,-3,0.0%
CCN(CC(=O)N1CCCCCC1)S(=O)(=O)c1ccc(C)cc1,3%,1%,/,-0.3%
CCOC(=O)C(=O)Nc1ncc(Cl)s1,1%,-5%,-2,2.5%
COc1ccccc1NC(=O)c1ccc(CSc2ccccc2)o1,-15%,5%,/,2.6%
COC(=O)c1[nH]c2ccccc2c1NS(=O)(=O)c1ccc(OC)cc1OC,-7%,14%,-1,?
COc1ccc(C(=O)N/C(=C\c2ccccc2)C(=O)NCc2cccnc2)cc1,9%,-9%,/,0.7%
O=C(O)c1ccc(-n2c(/C=C/c3ccccc3)nc3ccccc3c2=O)cc1,-12%,10%,/,-0.4%
Cc1ccc(N(C(=O)c2csnn2)C(C(=O)NC2CCCCC2)c2ccccn2)cc1 (centres undefined),2%,1%,/,-1.4%
Cc1cc(NCc2ccco2)nc2cc(O)ccc12,-11%,?,28,?
CC(C(=O)Nc1ccccc1C(F)(F)F)N1CCN(C)CC1 (centres undefined),0%,-19%,/,-4.3%
CCN(CC)C(=O)c1ccc(/C=C/c2c[nH]c3ccccc23)[n+](C)c1,-19%,?,-16,?
NC(=O)C1(N2CCCCC2)CCN(c2nc(-c3ccc(Br)cc3)cs2)CC1,-5%,-18%,3,?
O=C(CSc1nnc(CNc2cccc(Cl)c2)o1)OC1CCCCC1,-4%,-10%,-23,0.6%
COc1ccc(CCNC(=O)CSc2nc3[nH]ncc3c(=O)n2-c2ccccc2Br)cc1OC,7%,-24%,6,-3.0%
CCOC(=O)c1c(-c2ccc(OC)cc2)csc1/N=C/C1C(=O)CCCC1=O,0%,?,-3,?
CN(C)S(=O)(=O)c1ccc(C(=O)Nc2nnc(SCC(=O)NCC3CCCO3)s2)cc1 (centres undefined),-6%,-5%,/,-1.9%
CCN(CC(=O)Nc1ccccc1OC)C(=O)Cn1cnc2ccccc2c1=O,-4%,-18%,-6,-1.6%
O=C(CSc1ccc2nnc(-c3cccnc3)n2n1)Nc1cccc(F)c1,-4%,0%,/,1.6%
COc1ccccc1CC(=O)Nc1cc(Cl)ccc1O,-5%,8%,-3,-0.2%
CC(C)N(C(=O)[C@H]1C[C@H](CC(=O)NCC23CC4CC(CC(C4)C2)C3)C(=O)N2CCc3c([nH]c4cc(CCC(=O)N(C)C)ccc34)[C@]12C)C(C)C,/,-9%,/,-3.5%
N#Cc1cc2c(nc1SCC(=O)Nc1nccs1)CCCCC2,-25%,?,-5,?

# Part of the list above, tab-delimited.
smiles	miR-21 reporter	Rango release inh	GLA inh pH 4.5	Rango-impB inh
Cc1cc(NCc2ccco2)nc2cc(O)ccc12	-11%	?	28	?
CC(C(=O)Nc1ccccc1C(F)(F)F)N1CCN(C)CC1 (centres undefined)	0%	-19%	/	-4.3%
CCN(CC)C(=O)c1ccc(/C=C/c2c[nH]c3ccccc23)[n+](C)c1	-19%	?	-16	?
NC(=O)C1(N2CCCCC2)CCN(c2nc(-c3ccc(Br)cc3)cs2)CC1	-5%	-18%	3	?
O=C(CSc1nnc(CNc2cccc(Cl)c2)o1)OC1CCCCC1	-4%	-10%	-23	0.6%
COc1ccc(CCNC(=O)CSc2nc3[nH]ncc3c(=O)n2-c2ccccc2Br)cc1OC	7%	-24%	6	-3.0%
CCOC(=O)c1c(-c2ccc(OC)cc2)csc1/N=C/C1C(=O)CCCC1=O	0%	?	-3	?
CN(C)S(=O)(=O)c1ccc(C(=O)Nc2nnc(SCC(=O)NCC3CCCO3)s2)cc1 (centres undefined)	-6%	-5%	/	-1.9%
CCN(CC(=O)Nc1ccccc1OC)C(=O)Cn1cnc2ccccc2c1=O	-4%	-18%	-6	-1.6%
O=C(CSc1ccc2nnc(-c3cccnc3)n2n1)Nc1cccc(F)c1	-4%	0%	/	1.6%
COc1ccccc1CC(=O)Nc1cc(Cl)ccc1O	-5%	8%	-3	-0.2%
CC(C)N(C(=O)[C@H]1C[C@H](CC(=O)NCC23CC4CC(CC(C4)C2)C3)C(=O)N2CCc3c([nH]c4cc(CCC(=O)N(C)C)ccc34)[C@]12C)C(C)C	/	-9%	/	-3.5%

# (listing goes on)
SMILES,miR-21 reporter,Rango release inh,GLA inh pH 4.5,Rango-impB inh
COc1ccc2cc(C(=O)COC(=O)COc3ccc4c(C)cc(=O)oc4c3)ccc2c1,-3%,0%,-2,-4.6%
CCCCNC(=O)COC(=O)c1ccc(N(C)C)cc1,-8%,3%,1,-1.8%
CC(C)N=C(NS(=O)(=O)c1ccc(Br)cc1)c1ccc(Cl)cc1,0%,4%,0,3.8%
CC1CCC(NC(=O)c2ccc(/C=C3\Oc4ccccc4N(C)C3=O)cc2)CC1 (centres undefined),-41%,/,2,/
CCOC(=O)C(C)Sc1nnc(-c2ccccc2O)n1-c1ccc(C)cc1 (centres undefined),-1%,-11%,2,2.0%
CC(C)n1c(=O)n(CC(=O)NCC2CCCO2)c(=O)c2c3c(sc21)COC(C)(C)C3 (centres undefined),-3%,-18%,/,1.0%
CCOc1c(C)cnc2c1c(=O)n(Cc1cccc(Cl)c1)c(=O)n2C,-2%,-11%,/,-0.2%
Cc1ccc(N(C)C(=O)CN(C)S(=O)(=O)c2ccc3c(c2)n(C)c(=O)c(=O)n3C)cc1,0%,-7%,/,-1.9%
O=C1Nc2ccc([N+](=O)[O-])cc2C1(O)N1CCCCC1 (centres undefined),-3%,0%,-9,-0.2%
CCOc1ccc(C(=O)C(C)OC(=O)C2CCN(c3ccc(C(F)(F)F)cn3)CC2)cc1 (centres undefined),/,-2%,/,0.8%
O=C(O)CCCCCNc1ncnc2ccc(Br)cc12,6%,-4%,-3,0.1%
CN1/C(=C\C(=O)CSc2nnc(N)s2)C(C)(C)c2ccccc21,1%,14%,-3,-0.8%
Cc1ccc(CS(=O)Cc2ccc(C(=O)N3CCN(c4ccc(F)cc4)CC3)o2)cc1 (centres undefined),9%,7%,/,-2.3%
CCOC(=O)C1CCN(c2c(N3CCN(c4ccccc4OC)CC3)c(=O)c2=O)CC1,-7%,-3%,3,-1.9%
O=C(/C=C/Nc1ccc(F)c(F)c1)c1ccc(Br)cc1,-65%,?,8,?
COCc1cc(=O)[nH]c(Cc2c(Cl)cccc2Cl)n1,-3%,38%,/,-5.2%
C/C(=N\NC(=O)c1ccc(NS(=O)(=O)c2cccs2)cc1)c1ccc(C(C)(C)C)cc1,-7%,-9%,-3,0.1%
COc1ccc(-c2ccc(-c3noc(-c4ccccc4)n3)c(OC)n2)cc1,-18%,2.1µM*,14,?
CC[C@@H](C)[C@H](CNC)NC[C@@H](Cc1cccc2ccccc12)NCCc1cccc(C(F)(F)F)c1,?,-13%,/,-0.7%
Cc1ccccc1Cn1c(=N)n(CC(=O)c2ccco2)c2ccccc21,9%,-1%,-6,?
O=C(NCCCN1CCCC1=O)c1ccc(S(=O)(=O)Nc2ccccc2F)cc1,/,26%,/,0.8%
C[C@H](NC(=O)c1nc[nH]c1C(=O)N[C@@H](Cc1ccccc1)C(=O)OC(C)(C)C)C(=O)OCc1ccccc1,7%,-10%,/,5.5%
C/C(=N\Nc1ccc(S(N)(=O)=O)cc1[N+](=O)[O-])c1cccnc1,5%,0%,/,2.1%
COc1ccccc1-n1c(SCC(=O)Nc2cc(C)on2)nc2c([nH]c3ccccc32)c1=O,7%,-7%,/,1.6%
CC(NC(=O)C(C)N1c2cccc3cccc(c23)S1(=O)=O)c1ccccc1 (centres undefined),0%,7%,/,0.4%
O=C(CCN1C(=O)S/C(=C\c2ccccc2)C1=O)N1CCOCC1,/,2%,/,1.4%
O=C(NC(Cc1c[nH]c2ccccc12)C(=O)O)/C(=C\c1ccccc1)NC(=O)c1ccccc1 (centres undefined),1%,-11%,/,-1.6%
CC1=C([N+](=O)[O-])C(c2ccc3c(c2)OCO3)N(C)C(=O)N1C (centres undefined),-4%,1%,/,-2.0%
c1ccc(-c2cn3ccccc3n2)cc1,/,14%,/,0.3%
Cc1ccc2[nH]c(CCN(C)C)c(CN3CCOCC3)c2c1,/,16%,/,3.3%
O=C(c1ccc2nccnc2c1)N1CCN(c2cccc(C(F)(F)F)c2)CC1,/,-7%,/,?
Cc1ccnc(NS(=O)(=O)c2ccc(NC(=O)Cc3ccc(Cl)cc3)cc2)n1,-6%,-12%,/,-4.2%
O=C(Cn1c(=O)n(CCC(=O)N2CCc3ccccc3C2)c(=O)c2ccccc21)NCC1CCCO1 (centres undefined),-1%,-2%,-8,0.8%
O=C(CN1CCN(c2ccccn2)CC1)N1CCc2ccccc21,-12%,8%,2,5.1%
CS(=O)(=O)N1CCC(C(=O)Nc2ccccc2Sc2ccccc2)CC1,-5%,-8%,?,3.9%
Cc1cc(NC(=O)c2ccc(NC(=O)CC(C)C)cc2)no1,-10%,-3%,2,-2.6%
COc1ccc(OCC(=O)Nc2ccccc2Cl)cc1,-3%,-8%,0,1.1%
COc1ccc(-c2c(-c3ccc4c(c3)OCO4)noc2C)cn1,-28%,-3%,/,5.6%
CC(=O)c1ccccc1NC(=O)CSc1nc2ccccc2c(=O)n1CCCN1CCOCC1,/,9%,/,4.5%
O=C(Nc1cccnc1)c1cccc(S(=O)(=O)N2CCCC2)c1,-3%,-9%,-3,0.7%
CNC(=O)c1c(O)c2cccc3c2n(c1=O)CC3,/,25%,/,-0.8%
CCc1ccc(OCC(=O)Nc2ccc(CN3CCCCC3)cc2)cc1,-3%,5%,10,-0.3%
COc1ccc(NC(=O)CN2C(=O)CSc3ccc(S(=O)(=O)N4CCC(C)CC4)cc32)cc1,7%,1%,/,2.6%
Cc1ccc(C2(C)NC(=O)N(CC(=O)Nc3ccc(-c4nc5ccc(C)cc5s4)cc3)C2=O)cc1 (centres undefined),-36%,9%,11,?
CC1CN(CCn2cnc3c(N)ncnc32)CC(C)O1 (centres undefined),-7%,9%,-3,0.3%
COc1cccc(/C=C/C(=O)OCC(=O)Nc2cccc(S(=O)(=O)N3CCCCC3)c2)c1OC,-3%,13%,-7,3.6%
Cn1c(=O)n(Cc2ccco2)c(=N)c2c3c(sc21)CCC3,-3%,0%,11,-1.2%
CCOc1ccc2c(c1)-c1c(ssc1=S)C(C)(C)N2,15%,8%,-6,2.8%
CCCCN(C(=O)C(C)Oc1ccc(Br)cc1)c1c(N)n(Cc2ccccc2)c(=O)[nH]c1=O (centres undefined),-1%,?,/,-4.1%
Cc1cccc(N2CCN(C(c3ccccc3)c3nnnn3CC3CCCO3)CC2)c1C (centres undefined),8%,-5%,-10,4.1%
CCn1c(Cc2ccccc2)n[nH]c1=S,-3%,-8%,1,0.6%
CCN(Cc1ccccc1)S(=O)(=O)c1ccc2c(c1)NC(=O)CS2,4%,23%,/,-3.4%
O=C(CNc1cccc(S(=O)(=O)N2CCCCCC2)c1)Nc1cccc([N+](=O)[O-])c1,/,-4%,/,2.9%
CCc1ccccc1NC(=S)N(Cc1cccs1)C1CCCC1,-1%,-3%,4,0.7%
Cc1ccc(C)c(NC(=O)CSc2nc3ccc(N4C(=O)c5ccccc5C4=O)cc3s2)c1,-7%,-2%,4,3.7%
Cc1scc(C(=O)NNC(=O)CCC(=O)O)c1C,5%,-6%,6,3.5%
O=C(O)COc1ccc(C(=O)Cc2ccc3c(c2)OCCCO3)c(O)c1,6%,-3%,4,?
CCC(=O)Nc1c(-c2ccc(C)cc2)nc2ccc(C)cn12,3%,4%,/,2.6%
CCc1c(-c2n[nH]c(=S)n2Cc2ccccc2)csc1C,3%,2%,-3,-4.0%
COc1ccc(C(=O)NCCn2cc(SCC(=O)NCC3CCCO3)c3ccccc32)cc1OC (centres undefined),11%,2%,/,2.7%
CCN(CC)CCNC(=S)NC(=O)c1cn(-c2ccccc2)nc1-c1ccc(OC)cc1,-5%,-1%,-6,-1.0%

# Compound activity (PubChem BioAssay)
